# Rce1 inh – inhibitors of yeast Ras-converting enzyme; Q03530; yeast membranes, quenched prenylated peptide cleavage fluorescence; calls only; 0.27% of 290,000 active; AID 2563;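 active = fall in fluorescence gain of 50% or more versus controls, with final raw signal at or below 3038400; inconclusive = same 50% fall but final raw signal above 3038400; inactive = fall in fluorescence gain under 50%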;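 also: plate controls were neutral control wells for no effect and wells lacking membranes for full effect; tested at 10 µM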
# PABP FP inh – blocks human PABP binding to poly(A) RNA | P11940 | fluorescence polarization | inhibition, % at 35 µM | 1% of 290,000 active;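 active = 50% or more with normal probe brightness, or confirmed in later tests; inconclusive = above 50% with abnormal brightness, or retests that disagree; inactive = below 50% or failed in later tests; about a fifth of its hits are not listed in these tables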;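 also: calls also rest on retests at 20 µM and on dose response follow-up; controls were probe without protein and protein plus probe with vehicle; some compounds called inactive have numbers as strong as hits; many hits fall short of the cut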
# Target sequence (P11940 whole entry, looked up): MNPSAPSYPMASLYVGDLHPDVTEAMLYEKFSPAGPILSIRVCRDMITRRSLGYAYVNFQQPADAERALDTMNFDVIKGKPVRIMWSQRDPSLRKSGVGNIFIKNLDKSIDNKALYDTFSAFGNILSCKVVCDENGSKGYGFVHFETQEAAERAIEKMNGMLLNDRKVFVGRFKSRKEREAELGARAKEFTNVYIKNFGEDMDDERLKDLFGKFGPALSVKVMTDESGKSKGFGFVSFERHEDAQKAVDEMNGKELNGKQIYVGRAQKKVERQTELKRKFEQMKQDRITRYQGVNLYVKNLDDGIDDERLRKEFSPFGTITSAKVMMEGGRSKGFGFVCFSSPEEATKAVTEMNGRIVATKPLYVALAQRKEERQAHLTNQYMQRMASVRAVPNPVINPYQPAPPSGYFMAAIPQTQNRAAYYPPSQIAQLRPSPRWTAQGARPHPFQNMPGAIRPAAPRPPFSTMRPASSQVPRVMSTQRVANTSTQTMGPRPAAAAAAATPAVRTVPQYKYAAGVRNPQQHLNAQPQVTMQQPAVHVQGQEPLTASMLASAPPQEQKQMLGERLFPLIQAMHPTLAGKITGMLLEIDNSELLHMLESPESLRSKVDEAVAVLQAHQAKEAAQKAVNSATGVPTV
# MT1-MMP act inh – MT1-MMP (human) activation inhibition. HT1080 RFP-PRO-GFP cells, GFP/RFP ratio fluorescence, overnight; percent of plate control window, DMSO zero. AID 651647. 0.061% of 360,000 active. GFP/RFP ratio change, % at 20 µM;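 active = GFP/RFP ratio change of at least 30% with cell ATP level not reduced by more than half and red fluorescence within 50% of control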; also: strong numbers were not always called active
#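 Material: RFP-PRO-GFP reporter HT1080 cells. Dosing: single-point 20 µM compound, 1% DMSO. Controls: DMSO and RFP-L50D-GFP cell wells. Timing: cells overnight before dosing, compound overnight, 37 °C, 5% CO2. Measure: GFP/RFP fluorescence ratio.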
# Env fusion inh – inhibitors of HIV Env-mediated cell fusion; 1.1% of 360,000 active; HeLa-JRFL Env/CEM21 cell fusion, luciferase; inhibition, % at 12.3 µM;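 active = mean replicate inhibition score of at least 50 and every replicate individually at or above 50; inconclusive = only one of the two criteria met; inactive = mean below 50 and not all replicates reaching 50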;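 also: 0% = plate neutral controls and 100% = maraviroc near 300 nM; one replicate is shown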
# UUG fidelity – modulators of start codon recognition fidelity in yeast; S. cerevisiae UUG-firefly luciferase reporter, luminescence/redox ratio; activity score, % at 18.7 µM; 0.13% of 350,000 active;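 active = replicate mean at a twofold rise or more, about +100% in these data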;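 also: firefly luciferase made from a UUG start codon reports start codon fidelity; reporter light over untreated wells divided by growth signal over untreated wells; some hits fall short of that in this replicate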
# CSC inhib – blocks cancer stem cells; inhibition, % at 7.5 µM; 1.1% of 300,000 active; cancer stem cell-like cells viability, luminescence;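 active = mean at 75% or more and at least half the replicates too; inconclusive = mean and replicates disagree; tested in HMLE shEcad cells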;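 also: 0% = median of negative and 100% = median of positive control wells; the first replicate is given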
# eIF4H FP inh – inhibitors of RNA binding by human eIF4H | 0.94% of 290,000 active | inhibition, % at 35 µM | eIF4H fluorescence polarization binding assay;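 active = 50% or more with normal probe brightness, or confirmed in later tests; inconclusive = above 50% with abnormal brightness, or retests that disagree; inactive = below 50% or failed in later tests; about a fifth of its hits are not listed in these tables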;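 also: calls also rest on retests at 20 µM and on dose response follow-up; 0% = protein and probe with vehicle and 100% = probe without protein; strong numbers were not always called active; many hits fall short of the cut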
# eIF4H FP inh retest – also measured in eIF4H FP inh; calls as there; inhibition, %; compound at 20 µM; confirmation average;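 mean of two retest wells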
# PABP FP inh retest – second read-out of PABP FP inh, no call of its own (marks repeat the call); inhibition, %; compound at 20 µM; confirmation repeats;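 mean of two retest wells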
# MT1-MMP act inh RFP – second read-out of MT1-MMP act inh, no call of its own (marks repeat the call); RFP signal change, %; measured here: RFP expression control read;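 0 = vehicle wells; hits needed this value within 50% of zero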
# Numbers without * were called inactive; i = inactive; ? = inconclusive; · = no result given.
SMILES,Rce1 inh,PABP FP inh,MT1-MMP act inh,MT1-MMP act inh RFP,Env fusion inh,UUG fidelity,CSC inhib,eIF4H FP inh,others
Cn1c(=NC(=O)C2=NNC(=O)CC2)sc2ccccc21,i,6,-2,-2,48,·,-12,1,
Clc1ccc(-c2noc(CN3CCN(c4ccccc4)CC3)n2)cc1,i,5,1,-1,·,-16,17,-2,
O=C(O)c1ccc(-c2nc(-c3ccccc3)c(-c3cccs3)[nH]2)cc1,?,-1,5,2,-26,·,-19,-1,
O=c1cc(Cc2nnc(SCc3ccccc3)n2-c2ccc(Cl)cc2)[nH]c(=O)[nH]1,i,21,-10,5,-2,·,-1,2,
O=C(COC(=O)c1ccccc1C(=O)N1CCN(c2ccccc2)CC1)Nc1ccc(F)cc1,i,4,-32,-6,-68,-14,-3,17,
O=C(Nc1ccc2c3c(cccc13)CC2)c1ccc(Br)o1,i,2,1,5,·,-22,16,-10,
CN(C)S(=O)(=O)c1ccc2c(c1)Cc1cc(S(=O)(=O)N(C)C)ccc1-2,i,17,-14,-5,-1,-9,8,8,
CN(CC(=O)Nc1ccc(N2CCOCC2)cc1)C(=O)COc1ccccc1F,i,0,5,7,2,5,-7,-6,
O=C(Nc1ccc(Cl)cc1)N1CCCN(c2ccc(C(F)(F)F)cc2[N+](=O)[O-])CC1,i,16,16,-4,24,-5,83*,-10,
CC(=O)Nc1cccc(-c2ccnc3c2CC(C(=O)Nc2cccc(Oc4ccccc4)c2)O3)c1 (stereo not given),·,·,3,-9,-7,-6,·,·,
O=C(/C=C/NNC(=O)c1cccc(Br)c1)c1ccccc1,i,-1,2,3,·,-9,22,-11,
CCn1cc(C(=O)Nc2ncccc2O)c(=O)c2cc(F)c(N3CCN(C(=O)c4ccco4)CC3)cc21,i,6,0,0,-3,10,-7,66,eIF4H FP inh retest=1;PABP FP inh retest=11
COc1ccc(NC(=S)NNC(=O)COc2ccc(Cl)cc2Cl)cc1,i,2,6,5,-34,·,0,6,
CC(C)(C)OC(=O)N1CCCC(C(=O)Nc2ccc(C(=O)NC3CC3)cc2)C1 (stereo not given),·,·,1,2,-95,-6,·,·,
O=C1Nc2ccccc2/C1=N\N=C\C1=C(N2CCOCC2)C(=C\c2ccccc2)/CC1,i,9,10,-11,64*,-9,32,12,
O=C(NCc1ccco1)c1cnn2c(C(F)(F)F)cc(-c3ccccc3)nc12,·,5,1,-4,·,-8,3,2,
CSc1n[nH]c(=S)n1N,i,3,0,3,8,-14,-11,2,
C/C(=N\NC(=O)c1c(Br)c(C)nn1C)c1cccc(NC(=O)c2ccccc2C)c1,i,-3,4,6,·,·,6,-3,
CC(C)(C)OC(=O)N1CCCC1C(=O)N1CCCC1C(=O)N1CCCC1C(=O)O (stereo not given),i,8,1,0,·,·,·,-1,
COCc1cc(C)nc(N/N=C/c2ccc(-c3ccc(Cl)cc3[N+](=O)[O-])o2)c1C#N,i,-6,1,2,-266,·,·,6,
CC(C)C[C@@H](CO)NC(=O)CC[C@H](NC(=O)OC(C)(C)C)C(=O)N(Cc1ccccc1)Cc1ccccc1,i,·,-3,-3,-23,-9,-17,·,
NC(=O)c1cccnc1Nc1ccccc1Cl,i,3,2,6,-41,·,-6,-6,
Cc1ccc(C2C(C#N)=C(N)Oc3c2c(=O)n(C)c(=O)n3C)cc1 (stereo not given),i,-10,3,3,·,-6,·,7,
CCOc1ccccc1C(=O)NCCNC(=O)c1ccccc1OCC,i,·,2,0,-20,·,0,·,

# Molecules above that contain bromine:
SMILES,Rce1 inh,PABP FP inh,MT1-MMP act inh,MT1-MMP act inh RFP,Env fusion inh,UUG fidelity,CSC inhib,eIF4H FP inh,others
O=C(Nc1ccc2c3c(cccc13)CC2)c1ccc(Br)o1,i,2,1,5,·,-22,16,-10,
O=C(/C=C/NNC(=O)c1cccc(Br)c1)c1ccccc1,i,-1,2,3,·,-9,22,-11,
C/C(=N\NC(=O)c1c(Br)c(C)nn1C)c1cccc(NC(=O)c2ccccc2C)c1,i,-3,4,6,·,·,6,-3,

# Returning to the listing; the 2 compounds before the break are reprinted first.
SMILES,Rce1 inh,PABP FP inh,MT1-MMP act inh,MT1-MMP act inh RFP,Env fusion inh,UUG fidelity,CSC inhib,eIF4H FP inh,others
Cc1ccc(C2C(C#N)=C(N)Oc3c2c(=O)n(C)c(=O)n3C)cc1 (stereo not given),i,-10,3,3,·,-6,·,7,
CCOc1ccccc1C(=O)NCCNC(=O)c1ccccc1OCC,i,·,2,0,-20,·,0,·,
CC(C)c1ccc(C2NC(=O)NC3=C2CCc2ccccc23)cc1 (stereo not given),i,2,-14,-6,32,-1,-2,-1,
O=C(NCCc1ccccc1)c1ccc(=O)[nH]c1,i,6,4,7,·,·,-18,2,
O=C(CCCn1c(=O)[nH]c2ccsc2c1=O)Nc1ccc(F)cc1,i,13,8,6,4,-14,-21,-6,
COCCn1c(CNc2ccc(F)cc2)nnc1SCC(=O)Nc1ccc(OC)cc1OC,i,4,7,-4,26,-18,·,-1,
CCc1ccc(CNC(=O)c2ccc3c(c2)NC(=O)C(N2CCOCC2)S3)cc1 (stereo not given),i,-6,-5,-10,0,-6,-18,0,
Cc1ccc(S(=O)(=O)N2CCC(C(=O)OCC(=O)NC(C)c3ccc(F)cc3)CC2)cc1C (stereo not given),·,·,-2,3,2,-5,-17,·,
COc1ccc(Nc2oc(COc3ccccc3OC)nc2C#N)cc1,i,-4,-2,3,22,·,1,-7,
Cc1ccc(-c2csc(N3CCN(c4cc5c(cc4Cl)nc(C(C)N)n5CCCO)CC3)n2)cc1 (stereo not given),i,10,1,6,·,-26,2,7,
CCCNC(=O)N[C@@H](Cc1ccccc1)C(=O)OC,i,12,11,9,·,-5,4,5,
COc1cc(OC)cc(N(C(=O)CNC(=O)c2ccco2)C(C(=O)NCC2CCCO2)c2ccccc2)c1 (stereo not given),i,-3,0,1,3,-5,3,-7,
OCC[C@@H]1C[C@@H](O)[C@H](O)[C@@]2(CCc3ccccc3O2)O1,i,-15,-1,3,-54,-15,-1,-6,
Cc1ccc(C(=O)NCCNS(=O)(=O)c2ccccc2)cc1,i,5,-1,-1,-83,-13,-6,-8,

# 6 structures from above, sorted by SMILES length, rising.
SMILES,Rce1 inh,PABP FP inh,MT1-MMP act inh,MT1-MMP act inh RFP,Env fusion inh,UUG fidelity,CSC inhib,eIF4H FP inh,others
O=C(NCCc1ccccc1)c1ccc(=O)[nH]c1,i,6,4,7,·,·,-18,2,
CCCNC(=O)N[C@@H](Cc1ccccc1)C(=O)OC,i,12,11,9,·,-5,4,5,
COc1ccc(Nc2oc(COc3ccccc3OC)nc2C#N)cc1,i,-4,-2,3,22,·,1,-7,
COCCn1c(CNc2ccc(F)cc2)nnc1SCC(=O)Nc1ccc(OC)cc1OC,i,4,7,-4,26,-18,·,-1,
OCC[C@@H]1C[C@@H](O)[C@H](O)[C@@]2(CCc3ccccc3O2)O1,i,-15,-1,3,-54,-15,-1,-6,
Cc1ccc(-c2csc(N3CCN(c4cc5c(cc4Cl)nc(C(C)N)n5CCCO)CC3)n2)cc1 (stereo not given),i,10,1,6,·,-26,2,7,

# Back to the main list, repeating the 2 entries before the break.
SMILES,Rce1 inh,PABP FP inh,MT1-MMP act inh,MT1-MMP act inh RFP,Env fusion inh,UUG fidelity,CSC inhib,eIF4H FP inh,others
OCC[C@@H]1C[C@@H](O)[C@H](O)[C@@]2(CCc3ccccc3O2)O1,i,-15,-1,3,-54,-15,-1,-6,
Cc1ccc(C(=O)NCCNS(=O)(=O)c2ccccc2)cc1,i,5,-1,-1,-83,-13,-6,-8,
COc1ccc(CCN2CC(C(=O)N3CCC(OC)CC3)CCC2=O)cc1 (stereo not given),i,-4,0,2,6,-11,-2,1,
O=C(CSc1nccn1-c1cccc(F)c1)NC1CCCC1,·,·,-2,-2,·,-15,-1,·,
O=C(c1ccco1)N1CCN(c2ncnc3scc(-c4cccs4)c23)CC1,i,-2,-15,-8,·,·,-1,-7,
O=C1c2ccccc2C(Nc2cccnc2)N1Cc1ccc2c(c1)OCO2 (stereo not given),i,-7,-1,0,-6,-7,-10,8,
O=C(NCc1ccc2c(c1)OCO2)C1CC(=O)N(C2CCCC2)C1 (stereo not given),i,-2,7,1,·,-13,·,-3,
Cc1ccc(S(=O)(=O)N2CCCCC2)cc1NS(=O)(=O)c1ccccc1F,·,·,-4,3,17,-25,·,·,
CCOc1ccc(NC(=S)NCCCN2CCOCC2)cc1,i,-15,0,4,7,·,-6,-8,
CC(=O)c1c(C)[nH]c(C(=O)/C(C#N)=C/c2cccc(C)c2)c1C,i,14,-11,2,3,-18,-5,-9,
Cc1ccc(NC(=O)c2cnc(SCC(=O)NCC3CCCO3)n(C)c2=O)cc1 (stereo not given),i,·,6,-7,·,-31,33,·,
COc1ccc(C(=O)c2ccc3oc(-c4ccc(OC)cc4)c(-c4ccc(O)cc4)c3c2)cc1,·,·,-7,-11,33,3,104*,·,
Cc1[nH]c2ccc(C(=O)N3CCCCC3)cc2c1C,i,0,-1,-1,-28,-22,43,3,
O=C(NCCc1ccc(Cl)cc1)c1cccs1,i,-5,2,0,-9,-12,-8,4,
CCn1cc(C(=O)NCCCN2CCC(C)CC2)c(=O)c2cc(S(=O)(=O)N3CCCC3)ccc21,i,1,4,-2,-1,0,-3,-4,
CC(C)c1ccc(N=C(N)N=C(N)N)cc1,i,-11,0,-1,8,·,-28,1,
Cc1ccc(C)c(S(=O)(=O)N2CCN(CC(=O)NC(=O)NCc3ccccc3)CC2)c1,i,-2,-3,-6,-49,·,-24,10,
COc1ccccc1C(=O)NCCOc1ccc(C)c(C)c1,i,-3,-1,2,8,-7,-12,-9,
O=C1C2CC=C(Cl)CC2C(=O)N1CCC[n+]1ccccc1 (stereo not given),i,0,9,4,-30,-1,-3,-3,
COc1ccccc1NC(=O)C1=C(C)Nc2nc(-c3ccc(N(C)C)cc3)nn2C1c1ccncc1 (stereo not given),·,-6,-14,-16,19,3,·,-4,
COC(=O)c1ccc(C(=O)Nc2ccc(C(C)C)cc2N)cc1,i,-7,5,1,-12,-12,-24,1,
CC(C)(C)C(=O)O/N=C(\N)c1c(Cl)cccc1Cl,i,6,-2,1,-7,·,9,2,
CCc1nc(Nc2cccc(F)c2)c2oc3ccccc3c2n1,i,3,-1,-10,-9,-7,14,1,
COc1ccc(OC)c(NC(=O)COc2ccc(S(=O)(=O)N3CCCC3)cc2)c1,i,5,6,0,8,-8,-29,4,
CC(=O)Nc1ccc(C2=CC(=O)C[C@H](c3ccc4c(c3)OCO4)C2)cc1,·,·,-13,0,-29,10,13,·,
CCC1CC(/C(C)=N/NC(N)=O)OC1=O (stereo not given),i,9,-1,1,-5,-3,-18,-6,
COc1cc(C2NC(=O)NC(O)(C(F)(F)F)C2C(=O)c2cccs2)ccc1O (stereo not given),i,-1,14,6,·,0,-9,0,
O=C(/C=C/c1ccc(OCc2ccccc2)c(OCc2ccccc2)c1)c1cccnc1,i,7,-17,-18,10,·,8,18,
CCN1C[C@@H]2[C@@H]3C(=O)N(Cc4ccccc4)C(=O)[C@@H]3[C@](C)(C1=O)N2C(=O)c1ccc(C(F)(F)F)cc1,·,·,3,3,8,24,·,·,
Cc1cnc(C(=O)OCC(=O)N2C(C)CCCC2C)cn1 (stereo not given),·,·,4,4,·,-11,2,·,
